# Bioassay records as filed in PubChem BioAssay.
# BJeLR lethal – MLPCN primary cell-based screen for lethality selective to Ras in HRASV12 cells | BJeLR (HRASV12) viability, CellTiter-Glo ATP luminescence, 48 h; reference of the scale not given here | inhibition, % (test concentration not listed) | 300,000 tested, 0.17% active | AID 1554, 2009;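 active = replicate mean above 50%; inconclusive = above 50% but judged a plate artefact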;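 note: 50 nL library stock added to about 25 µL; numbers are from one replicate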
# PrP 5UTR inh – inhibition of PrP 5' UTR reporter expression. 340,000 tested, 0.35% active. inhibition, % (concentration not given with the values). cell-based PrP 5' UTR mRNA reporter, plate reader;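 active = every replicate at 50% or more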;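 note: 0 = median of the neutral control wells; tested in H4 reporter cells; numbers are from one replicate; inactives centre near -14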
# Mtb hypoxia inh – PubChem AID 1159583; fluorescence inhibition, % (concentration not given with the values); 300,000 tested, 0.1% active; M. tuberculosis hypoxia-regulated fluorescent reporter, fluorescence;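 active = 35 to 45% if threefold the growth effect, above 45% if 1.5-fold the growth effect; inactive = the rest, general growth blockers included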;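 note: wells of about 50 µL received 100 nL stock; 0% = vehicle wells and 100% = reference inhibitor wells; whole bacteria with a GFP reporter of the hypoxia response; strong numbers were not always called active; many hits fall short of the cut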
# ugtP null kill – growth inhibition of ugtP-null S. aureus, primary screen, RN4220 ugtP deletion, OD600; growth inhibition, % (no concentration beside the values); 16 h; some inactives read as strong as hits; AID 1259309, 2017; 330,000 tested, 0.54% active;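 active = z-score under -3 and OD600 up to 0.15 on both plates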;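 note: plate controls were untreated wells for no effect and antibiotic for full effect; wells of about 80 µL received 100 nL stock; the first replicate is given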
# Autofluor counter – flagged as autofluorescent in microsphere protease counterscreen | 360,000 tested, 3.1% active | fluorescence intensity (no concentration beside the values) | AID 624483 | compound autofluorescence counterscreen, microsphere flow cytometry; stronger effect = higher value;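 active = at least 3 SD above the mean of all compounds, about 16000 in these data; inconclusive = too few beads counted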;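 note: 100 nL of 1 mM stock went into each well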
# RN4220 kill – growth inhibition of S. aureus RN4220, primary screen, OD600; 16 h; inhibition, % (no concentration beside the values); 330,000 tested, 0.33% active; AID 1259311, 2017;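 active = z-score of -3 or lower and OD600 up to 0.18 on both plates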;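 note: plate controls were untreated cells for no effect and reference antibiotic for full effect; stock transfer was 100 nL into about 80 µL; one replicate is shown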
# Mtb hypoxia inh growth – recorded beside Mtb hypoxia inh, whose call it bears; growth inhibition, %; measured here: M. tuberculosis growth (absorbance);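 0% = vehicle and 100% = reference antibiotic; read after six days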
# * hit, by the source's call; ? = inconclusive; nt = no result given; & = joins results of further samples.
SMILES,BJeLR lethal,PrP 5UTR inh,Mtb hypoxia inh,Mtb hypoxia inh growth,ugtP null kill,Autofluor counter,RN4220 kill
Cc1cc(SCC(=O)N/N=C/c2cccnc2)nc2c(C)cccc12,-1,-18,nt,nt,nt,4328,nt
C/C(=N/OC(=O)c1ccc(C)cc1)C(=O)c1ccc(Br)cc1,8,-18,nt,nt,nt,3908,nt
CS(=O)(=O)c1ccc(-c2cccc(NC(=O)c3ccc(Br)o3)c2)nn1,3,-7,-1,1,-2,4030,0.7
O=C(CN1C(=O)C2C3CC(C(Br)C3Br)C2C1=O)Nc1ccc(C(=O)O)cc1 (stereo unspecified),8,-13,-3,5,7,3967,2.0
COc1ccc(-c2nn(-c3ccccc3)cc2/C=C2/SC(=S)N(CCC(=O)O)C2=O)c(C)c1,-4,-22,nt,nt,nt,2885,nt
COc1cc(C=NNC(=O)c2ccc(CSc3nncn3C)cc2)cc(OC)c1O,nt,nt,8,-1,3,nt,8.4
COc1ccc(NC(=O)/C(N=Nc2ccc(Cl)c(S(=O)(=O)Nc3ccc(Cl)cc3)c2)=C(\C)O)cc1,nt,-13,4,1,-26,4250,3.1
COc1ccc([N+](=O)[O-])cc1NC(=O)CC1SC(=Nc2cccc(C)c2C)N(/N=C/c2cccc(OC)c2OC)C1=O (stereo unspecified),4,-2&-12,-1,-1,7,3776&4549,4.4
CCCOc1ccc(NC(=O)CC2C(=O)N(c3ccc(OCC)cc3)C(=S)N2C2CC2)cc1 (stereo unspecified),-6,1,3,3,7,5038,9.0
Cc1cc(/C=C2\SC(=O)N(CC(=O)Nc3ccccc3F)C2=O)c(C)n1C,0,-36,14,2,7,4988,-2.2
COc1ccccc1NC(=O)C1=C(C)NC(=O)NC1c1ccco1 (stereo unspecified),2,-1,3,12,5,4523,1.5
CC(=O)c1c(C)[nH]c(C(=O)Nc2ccc(S(=O)(=O)N(C)C)cc2)c1C,10,-26,3,1,2,5185,4.5
COc1ccc(CCNC(=O)C2CCCN2S(=O)(=O)c2cccc3nsnc23)cc1OC (stereo unspecified),-4,-18,3,-6,2,4290,1.9
S=C(Nc1cccc2ccccc12)NN1CCOCC1,8,-81,-1,5,3,?,0.4
O=C(CC1COc2ccccc2O1)NCCc1ccccc1 (stereo unspecified),-1,-15,6,6,3,3340,6.1
O=C1NC(=S)NC(=O)C1=Cc1ccccc1C(=O)O,nt,-7,-7,9,-5,3496,15
Cc1cc(-c2csc(NC(=O)c3ccccc3C(F)(F)F)n2)c(C)n1Cc1ccccc1,1,-10,9,2,6,3024,3.3
CCC1=C([N+](=O)[O-])C(c2ccc3c(c2)OCO3)NC(=O)N1 (stereo unspecified),-10,-15,8,-1,4,3014,2.1
COc1ccc(S(=O)(=O)N(C)C[C@H]2Oc3ccc(NC(=O)Cn4cnnn4)cc3C(=O)N([C@H](C)CO)C[C@@H]2C)cc1,nt,-9,-1,6,-1,3581,1.8
CCOc1ccc(CNC(=O)Cn2nc(C)n3nc(-c4ccccc4)cc3c2=O)cc1,-4,-28,-8,-7,2,5364,7.3
CC1=CC(c2ccc(Cl)cc2)n2nc(NC(=O)c3ccccc3)nc2N1 (stereo unspecified),-3,-5,nt,nt,5,4230,0.9
CC1=NNC(=O)C1CC(=O)NN=Cc1cccs1 (stereo unspecified),nt,nt,0,12,9,nt,1.7
O=C(N/N=C/c1ccc(F)cc1)c1ccncc1,0,-20,nt,nt,nt,3199,nt
Cc1nnc(SCC(=O)NCc2ccco2)[nH]c1=O,18,-14,15,9,12,3515,5.7
COc1ccc(OCC(=O)NC2CCCc3ccccc32)cc1 (stereo unspecified),6,-5,0,-1,17,3896,5.0
# (cont.)
SMILES,BJeLR lethal,PrP 5UTR inh,Mtb hypoxia inh,Mtb hypoxia inh growth,ugtP null kill,Autofluor counter,RN4220 kill
O=C(Cn1nnc(-c2ccccc2F)n1)Nc1ccc2c(c1)OCO2,-9,-30,2,5,0,9228,-0.5
CCOc1ccc(NC(=O)C(C)N2C(=O)c3ccccc3C2=O)cc1 (stereo unspecified),4,-12,6,-2,2,nt,4.7
CCCc1nnc(NS(=O)(=O)c2ccc(C)cc2)o1,nt,-16,9,-2,0,3761,3.8
COC1CC(OC2OC(CO)C(O)C(O)C2O)C(=CC#N)C(O)C1OC (stereo unspecified),nt,nt,-6,0,-3,nt,1.9
O=C(c1cc(Cl)nc2ccccc12)N1CCN(S(=O)(=O)c2cccc(F)c2)CC1,13,-8,6,-6,5,?,-0.5
CC(n1cnnn1)C12CC3CC(CC(C3)C1)C2 (stereo unspecified),2,-6,nt,nt,2,4658,0.9
CCN1CCN(Cc2nnc(-c3ccc(C)cc3)o2)CC1,0,-19,3,5,-1,2817,-1.4
N#CC1(NC(=O)COc2cccnc2[N+](=O)[O-])CCCCC1,nt,0,12,-9,5,2926,4.8
CC(C)CCN(Cc1ccco1)S(=O)(=O)c1ccc(-c2ccc(=O)[nH]n2)s1,-9,-23,0,-3,2,5000,6.5
O=C(NC(=O)c1ccccc1O)c1ccc2c(c1)CCO2,8,-84,11,-4,1,3756,7.3
CCOc1ccc(NC(=O)CN(C)C(=O)c2ccc3c(c2)S(=O)(=O)N=C2CCCCCN23)cc1OCC,nt,-2,11,5,6,5175,5.9
Cc1ccc(C(=O)Oc2ccc(C=NNC(N)=O)cc2)cc1,nt,nt,-4,-8,8,nt,10
Cc1ccc(C(=O)N2N=C(CC(C)C)CC2(O)C(F)(F)F)o1 (stereo unspecified),0,-29,-2,6,1,4044,2.6
Cc1cccc(/N=C/c2c(O)c3ccccc3oc2=O)n1,8,-6,nt,nt,nt,2345,nt
Cc1c(C(=O)N2CC(C(=O)N3CCCCC3)Oc3ccccc32)oc2ccccc12 (stereo unspecified),nt,-14,5,-3,14,5085,-0.7
c1ccc(COc2ccc(OCCn3cncn3)cc2)cc1,1,-63,nt,nt,-7,4481,-0.6
CCCc1nn(C)c2c(=O)[nH]c(-c3cc(S(=O)(=O)N4CCN(C)CC4)ccc3OCC)nc12,7,-30,11,13,1,5452,5.9
Cc1c(O)ccc(C(=O)CN2CCN(Cc3ccccc3)CC2)c1O,-6,-25,-7,7,1,5642,-0.6
COCC(C)NC(=S)Nc1ccccc1[N+](=O)[O-] (stereo unspecified),1,-4,3,-3,5,3314,3.4
CCOC(=O)N1CCN(c2ccc(C(=O)CC)cc2F)CC1,-8,-27,13,11,-6,2936,-5.9
Cc1cc(/C=C2\C(=O)NC(=O)N(Cc3ccccc3)C2=O)c(C)n1-c1ccc(Cl)c(C(=O)O)c1,1,-26,-4,8,-1,2617,-1.4
CCOC(=O)CNC(=O)CSc1nc(-c2ccccc2)ns1,2,-8,16,14,-1,4231,0.4
CC(C)NC(=O)CCNS(=O)(=O)c1ccc(Br)cc1,0,3,-5,10,1,24137*,-0.3
Cc1ccc(NC(=O)COC(=O)CCCC2=NS(=O)(=O)c3ccccc3N2)cc1C,-2,-10,-1,5,0,6185,-0.5
O=C(CCCn1c(=O)[nH]c2cc(Cl)ccc2c1=O)N1CCC2(CC1)OCCO2,2,-10,8,3,-3,2716,9.8
# The list goes on.
SMILES,BJeLR lethal,PrP 5UTR inh,Mtb hypoxia inh,Mtb hypoxia inh growth,ugtP null kill,Autofluor counter,RN4220 kill
COc1ccc(N(C(C)C(=O)NN=Cc2ccc(OCC(C)C)cc2)S(C)(=O)=O)cc1 (stereo unspecified),nt,nt,3,3,-6,nt,7.1
CNC(=O)CSCc1c(F)cccc1Cl,-4,-18,1,2,-2,6446,5.5
CCOC(=O)N1CCN(C(=O)Nc2ccc3nc(C)sc3c2)CC1,-1,-8,nt,nt,0,4255,-1.2
Clc1ccc(C=NNc2ncnc3ccccc23)cc1Cl,nt,nt,11,5,0,nt,1.7
COC(=O)C1=C(c2cc3ccccc3o2)C[C@@H]2CC[C@H]1N2C(=O)N1CCCCC1,35,-19,7,-5,-1,3432,-12
CCOc1ccccc1C(=O)N[C@H](C(=O)Nc1cc(S(=O)(=O)N(C)C)ccc1OC)C(C)C,2,-30,7,18,2,3874,7.7
COc1cccc(NC(=O)CN(C)C(=O)CCNC(=O)c2ccc(Br)cc2)c1,-8,-15,7,3,-3,?,-1.7
Cc1ccc(S(=O)(=O)Nc2c(O)c3ccccc3oc2=O)cc1C,-4,-47,8,4,6,3027,14
CCc1c(O)nc(SCC(=O)Nc2nc3ccccc3s2)n(C2CCCCC2)c1=O,2,-23,4,4,-4,4298,12
COc1ccc(NC(=O)COC(=O)c2ccccc2SCC(=O)N2CCCC2)cc1,-9,-13,1,6,6,?,1.0
Cc1csc(NC(=O)CCCC(=O)O)c1-c1nc2ccccc2s1,6,-20,nt,nt,nt,4533,nt
Cc1ccc(S(=O)(=O)Nc2ccccc2C(=O)N2CCCCCC2)cc1,15,-18,5,0,3,3679,0.4
Cc1cccc(OCc2nnc(SCC(=O)N3CCCC3)o2)c1,0,-10,-2,-10,3,4094,6.3
COc1ccccc1NS(=O)(=O)c1cccc(C(=O)NCC(c2ccco2)N2CCCC2)c1 (stereo unspecified),nt,-6,8,-9,1,6739,0.8
O=C(NCc1nnc2c(C(F)(F)F)cc(Cl)cn12)c1ccco1,3,2,11,-1,2,4594,1.7
Cc1ccc(NC(=O)CC2SC(=Nc3ccc(O)cc3)NC2=O)cc1 (stereo unspecified),7,-10,-4,-3,3,3405,3.2
CCOc1ccc(-c2c(C(=O)NN=CC3CC=CCC3)nnn2-c2nonc2N)cc1 (stereo unspecified),nt,nt,18,4,3,nt,-0.5
CCN(CC)CCNS(=O)(=O)c1ccc(C(=O)NN)cc1,3,-23,0,-2,3,3753,7.0
COc1cc(C(=O)NC2CCN(Cc3ccccc3)CC2)cc(Cl)c1OC(C)C,0,-26,15,4,-9,4861,-3.9
CCN1CCc2c(OCC(=O)Nc3ccccc3)cccc2C1=O,-14,-9,8,12,2,5723,-0.7
CCN(C(=O)CCc1nc(-c2ccccc2F)no1)c1cc(OC)ccc1OC,-4,-32,nt,nt,8,2162,-1.4
Cn1cc(/C=C2\SC(=O)NC2=S)c2ccccc21,8,-35,14,5,7,4317,9.4
CC1CC(C)CN(CCCNC(=O)Cc2c(C(=O)O)n(C)c3ccccc23)C1 (stereo unspecified),-5,-9,0,-4,-2,6583,-1.2
C/C(=N/NC(=O)CNc1ccc(Cl)cc1C)c1ccc(C)cc1,5,-12,nt,nt,nt,2137,nt
CCOc1ccc(S(=O)(=O)N2CCN(C(=O)c3cc4ccccc4o3)CC2)cc1,nt,-14,3,2,1,nt,-4.5

# 4 entries from above, with two lines to a compound:
# Every second line gives: BJeLR lethal	PrP 5UTR inh	Mtb hypoxia inh	Mtb hypoxia inh growth	ugtP null kill	Autofluor counter	RN4220 kill
> COc1ccccc1NS(=O)(=O)c1cccc(C(=O)NCC(c2ccco2)N2CCCC2)c1 (stereo unspecified)
→ nt	-6	8	-9	1	6739	0.8
> O=C(NCc1nnc2c(C(F)(F)F)cc(Cl)cn12)c1ccco1
→ 3	2	11	-1	2	4594	1.7
> Cc1ccc(NC(=O)CC2SC(=Nc3ccc(O)cc3)NC2=O)cc1 (stereo unspecified)
→ 7	-10	-4	-3	3	3405	3.2
> CCOc1ccc(-c2c(C(=O)NN=CC3CC=CCC3)nnn2-c2nonc2N)cc1 (stereo unspecified)
→ nt	nt	18	4	3	nt	-0.5

# Next compounds:
SMILES,BJeLR lethal,PrP 5UTR inh,Mtb hypoxia inh,Mtb hypoxia inh growth,ugtP null kill,Autofluor counter,RN4220 kill
CC(C)Oc1ccc(C2C(C#N)=C(N)Oc3c2oc(CO)cc3=O)cc1 (stereo unspecified),-2,-37,1,8,3,4539,7.6
CC(=O)Nc1cccc(/C(C)=N/NC(=O)c2cc(-c3ccncc3)nc3ccccc23)c1,2,-17,nt,nt,nt,4495,nt
COc1ccc(CC(=O)OCC(=O)NNC(=O)c2ccccc2)cc1,nt,nt,11,10,6,nt,0.6
c1ccc2[nH]c(-c3cscn3)nc2c1,9,-45,5,4,-5,5895,5.5
CCOc1ccc2[nH]c(=O)c(CN(Cc3nnnn3Cc3ccccc3)CC3CCCO3)cc2c1 (stereo unspecified),3,-54,-11,0,-5,8450,1.3
CCN1CCc2c(sc(NC(=O)c3ccc4ccccc4c3)c2C(N)=O)C1,7,-16,nt,nt,nt,6523,nt
CNC(=O)/C(=C\c1ccc2c(c1)OCO2)NC(=O)c1ccc(Br)cc1,-9,-27,-3,-1,14,1928,9.0
COC(=O)c1sccc1NC(=O)CSc1ccccc1NS(=O)(=O)c1ccc(Cl)cc1,-14,-8,2,4,-13,4362,14
O=C(O)CCCNS(=O)(=O)c1cccs1,-2,-11,16,13,-2,3948,9.0
